2A StopGo: FMDV 2A StopGo reporter, luciferase signal; Potency, µM (top dose mostly 57.9 µM), inactives show at the top dose signal change, negative = less light; actives 1.2% (n = 410,000); AID 1159524; human cells with a luciferase reporter of 2A StopGo recoding; control for the full effect not named in the record; active = well fitted falling curve with a large enough effect; inconclusive = small, poorly fitted or top-dose-only effect; inactive = no such curve, though single readings can be large or run the other way; tested in HEK293T cells; further: on the % scale 0 is the no-effect control and ±100 the full control effect; nearly all actives have a fitted effect of over 45% in size; luciferase light after 4 h
SARS PLP yeast: SARS-CoV PLP inhibition in yeast; AID 485353; S. cerevisiae expressing SARS-CoV PLpro, growth rescue; control for the full effect not named in the record; actives 0.19% (n = 330,000); Potency, µM (titrated, usually from 32.9 µM), inactives show at the top dose activity, positive = growth rescue; further: 0% is about no effect; nearly all actives have a fitted effect of over 55% in size; growth read by luminescence after 48 h
LASV entry inh: blocks Lassa virus binding to or entry into cells; Lassa virus pseudotype entry inhibition, cell reporter; control for the full effect not named in the record; Potency, µM (titrated, usually from 37.9 µM), without a hit: at the top dose activity change, negative = inhibition, most hits filed as inhibitors; actives 1.2% (n = 300,000); AID 540256; active means well fitted inhibition curve with a large enough effect; inconclusive means small, poorly fitted or top-dose-only effect, or effect the other way; inactive means flat fitted curve, though single readings scatter; tested in HEK293 cells; further: on the % scale 0 is the no-effect control and ±100 the full control effect; nearly all actives have a fitted effect of over 50% in size; luciferase read-out
RE007 growth inh: less growth of the S. pombe RE007 Vpr strain; actives 0.21% (n = 360,000); Potency, µM (titrated, usually from 92.2 µM), for the others: at the highest dose activity change, negative = less growth; S. pombe RE007 Vpr strain, BacTiter-Glo ATP luminescence, 24 h; control for the full effect not named in the record; active = well fitted falling curve with a large enough effect; inconclusive = small, poorly fitted or top-dose-only effect; inactive = no such curve, though single readings can be large or run the other way;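 further: on the % scale 0 is the no-effect control and ±100 the full control effect; nearly all actives have a fitted effect of over 50% in size; the assay follows cell death caused by Vpr and the record does not say whether a fall means rescue or toxicity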
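Fission yeast RE007 carrying one integrated HIV-1 vpr copy, seeded at OD 0.01 in PMG+AL medium with 23 nL pinned compound. Grown 24 h at 30 degrees; viability read by BacTiter-Glo luminescence after 5 min.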
NS1 inh: inhibitors of influenza NS1 protein function; S. cerevisiae slowed by influenza A NS1, growth recovery by OD600; Potency, µM (titrated, usually from 46.1 µM), for inactives: at the top dose activity, positive = more growth; actives 0.4% (n = 270,000); AID 2326; further: actives are rising curves; nearly all actives have a fitted effect of over 50% in size
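Read-out: OD600 growth recovery of NS1-expressing budding yeast. Cells grown overnight at 30C in -URA glucose medium, washed, resuspended and diluted 1:100 in 2% galactose assay medium, pH 6.0. Same strain lacking NS1 served as positive control.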
Cruzain Triton: blocks cruzain activity in presence of Triton detergent. actives 0.43% (n = 200,000). purified cruzain, Z-FR-AMC fluorescence, 0.01% Triton. Potency, µM, without a hit: max response, negative = inhibition, most hits filed as inhibitors; active means well fitted curve in the direction sought with a large enough effect; inconclusive means small, poorly fitted or top-dose-only effect, or another doubt; inactive means no such curve, though single readings can be large; an effect the other way counts as inactive or inconclusive;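 further: plate controls were neutral wells for no effect and buffer without enzyme for full effect; nearly all actives have a fitted effect of over 40% in size; top concentration of the series not given in the record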
Target sequence (P25779 123-467 limits assumed): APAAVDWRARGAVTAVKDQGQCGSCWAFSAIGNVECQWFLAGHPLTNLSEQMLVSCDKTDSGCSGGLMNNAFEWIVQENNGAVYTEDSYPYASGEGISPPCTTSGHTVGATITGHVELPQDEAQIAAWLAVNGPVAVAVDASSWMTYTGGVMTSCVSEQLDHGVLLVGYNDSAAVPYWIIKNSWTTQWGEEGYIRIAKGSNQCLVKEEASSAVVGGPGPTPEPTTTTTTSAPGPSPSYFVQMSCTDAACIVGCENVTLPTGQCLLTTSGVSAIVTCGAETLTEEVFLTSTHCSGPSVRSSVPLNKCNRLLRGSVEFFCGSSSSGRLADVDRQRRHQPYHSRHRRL
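Steps: dispense cruzain (1.5 nM final) in acetate buffer pH 5.5 with DTT and 0.01% Triton X-100; pin-transfer compounds; incubate 15 min RT; add Z-FR-AMC (2 uM final); read fluorescence every 30 s, using the 60 s intensity change.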
Cruzain inh noDet: inhibitors of Trypanosoma cruzi cruzain without detergent | purified cruzain, Z-FR-AMC fluorescence, no detergent | Potency, µM, without a hit: max response, negative = inhibition, most hits filed as inhibitors | actives 2.3% (n = 200,000) | P25779; active means well fitted curve in the direction sought with a large enough effect; inconclusive means small, poorly fitted or top-dose-only effect, or another doubt; inactive means no such curve, though single readings can be large; an effect the other way counts as inactive or inconclusive;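 further: plate controls were enzyme without inhibitor for no effect and buffer without enzyme for full effect; nearly all actives have a fitted effect of over 40% in size; top concentration of the series not given in the record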
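Detergent-free condition (0.00005% Triton X-100) in acetate buffer pH 5.5 with DTT. 1.5 nM enzyme and compound were pre-mixed 15 min, then 2 uM Z-FR-AMC substrate added; reaction progress from fluorescence change between first and third reads (60 s).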
MARV entry inh: blocks Marburg virus binding to or entry into cells. Marburg virus pseudotyped entry inhibition, cell reporter; control for the full effect not named in the record; about a third of the inactives were read at about 46 µM. actives 1.8% (n = 300,000). Potency, µM (series often up to 37.8 µM), for inactives: at the highest dose activity change, negative = inhibition, actives largely listed as inhibitors; active = well fitted inhibition curve with a large enough effect; inconclusive = small, poorly fitted or top-dose-only effect, or effect the other way; inactive = flat fitted curve, though single readings scatter; tested in HEK293 cells; about a fifth of its hits are not listed in these tables; further: on the % scale 0 is the no-effect control and ±100 the full control effect; luciferase read-out
Numbers without * were called inactive; & = joins results of further samples; [ ] = remark or other dose. Unless noted, the call rests on the fitted dose curve; in most records, active means well fitted rising curve with a large enough effect; inconclusive means small, poorly fitted or top-dose-only effect; inactive means no such curve, though single readings can be large or run the other way. Potency means the concentration at half of the fitted maximal effect.

Screening COc1ccc(N/N=C(\C#N)C(=N)N2CCCCC2)cc1 returned 2A StopGo 69%[activator], SARS PLP yeast -1%, RE007 growth inh -7% and NS1 inh -2%.
Screening CC(=O)Nc1c(C)nn(-c2ccccc2)c1N1CCC(C(=O)Nc2ccccc2C(F)(F)F)CC1 returned 2A StopGo 0%, LASV entry inh -8%[46.1 µM], Cruzain Triton 1.8% and Cruzain inh noDet 26%.
`CC(/C=N/NC(=O)c1cccnc1)=C\c1ccco1` gave SARS PLP yeast 2%, LASV entry inh inconclusive, RE007 growth inh 8%, NS1 inh 3%, Cruzain Triton -6.5%, Cruzain inh noDet -8% and MARV entry inh 3%.
Screening Cc1ccc(C(=O)OCC(=O)Nc2sccc2C(N)=O)cc1NC(=O)c1ccco1 returned 2A StopGo inconclusive, SARS PLP yeast 2%, LASV entry inh -1%, RE007 growth inh -2%, NS1 inh 7%, Cruzain Triton -1.9%, Cruzain inh noDet -2% and MARV entry inh -16%.
`Cc1ccc(OCC(=O)Nc2ccc(CN3CCOCC3)cc2)cc1` gave 2A StopGo -20%, SARS PLP yeast -2%, LASV entry inh -14%[46.1 µM], RE007 growth inh -4%, NS1 inh 3% and MARV entry inh inconclusive.
Screening CC(CN1CCOCC1)OC(=O)C1COc2ccccc2O1 (stereo not drawn) returned 2A StopGo 4%, SARS PLP yeast 0%, LASV entry inh 12%, RE007 growth inh 10%, NS1 inh 2% and MARV entry inh 0%[46.1 µM].
CCOC(=O)N1CCN(CC(O)COc2ccc(CC)cc2)CC1 (stereo not drawn) was read as 2A StopGo -16%, SARS PLP yeast 1%, RE007 growth inh 4% and NS1 inh -1%.
For Cc1ccc2cccc(NC(=O)c3ccc(-c4ccc(Cl)cc4Cl)o3)c2n1 the results were 2A StopGo -12%, LASV entry inh 2%[46.1 µM], Cruzain Triton 1.1%, Cruzain inh noDet 4% and MARV entry inh 2%[46.1 µM].
Screening CC(=O)Nc1nnc(CCS(=O)(=O)c2ccc(Cl)cc2)s1 returned 2A StopGo 5%, SARS PLP yeast 1%, LASV entry inh 4%, RE007 growth inh 3% and MARV entry inh -26%[46.1 µM].
For CC(C)Oc1ccc(S(=O)(=O)N2CCCCC2)cc1NC(=O)C1CCC1 the results were 2A StopGo 0%, SARS PLP yeast -2%, LASV entry inh -16% and RE007 growth inh -5%.
For CCC12CN3CCN(CC(C3)/C1=N\O)C2 the results were 2A StopGo inconclusive, SARS PLP yeast 2%, LASV entry inh 7%, RE007 growth inh -6%, NS1 inh 2%, Cruzain Triton 3.3%, Cruzain inh noDet -5% and MARV entry inh inconclusive.
For CCc1cc(C(=O)N2CCN(c3ccccn3)CC2)sc1C the results were 2A StopGo -20%, SARS PLP yeast -9%, LASV entry inh -4%[46.1 µM], RE007 growth inh -1%, NS1 inh -28% and MARV entry inh inconclusive.
`O=C(c1nc2nc(-c3ccc(Cl)cc3)cc(C(F)(F)F)n2n1)N1CCOCC1` gave 2A StopGo -25%, SARS PLP yeast 4%, LASV entry inh -3%, RE007 growth inh -3%, NS1 inh -2%, Cruzain Triton -5.8%, Cruzain inh noDet -4% and MARV entry inh 8%.
O=C(CN1CCN(CCC(=O)Nc2ccccc2F)CC1)Nc1ccc(F)cc1 was read as 2A StopGo -4%, SARS PLP yeast -5%, LASV entry inh -15%, RE007 growth inh -5%, NS1 inh -10%, Cruzain Triton -1.1%, Cruzain inh noDet -3% and MARV entry inh -6%.
`CCN(CC(=O)Nc1ccc([N+](=O)[O-])cc1OC)c1ccccc1` gave SARS PLP yeast -13%, LASV entry inh inconclusive, RE007 growth inh 10%, NS1 inh -11%, Cruzain Triton -3.6%, Cruzain inh noDet -8% and MARV entry inh inconclusive.
`COc1cc(OC)cc(C(=O)N2CCN(C(=O)c3ccc(OC)c(OC)c3)CC2)c1` gave 2A StopGo -6%, SARS PLP yeast -7%, LASV entry inh 0%, RE007 growth inh 8%, NS1 inh -2%, Cruzain Triton 0.0%, Cruzain inh noDet -4% and MARV entry inh 8%.
Cc1ccc(/C=C/C(=O)O)cc1S(=O)(=O)N1CCCc2ccccc21 was read as 2A StopGo -1%, SARS PLP yeast 0%, RE007 growth inh 1% and NS1 inh -1%.
`COc1ccc(C(C(=O)NC2CCCCC2)N(C(=O)c2csnn2)C2CC2)cc1` (stereo not drawn) gave 2A StopGo 2%, SARS PLP yeast -1%, LASV entry inh 5%, RE007 growth inh -16%, NS1 inh 7% and MARV entry inh -21%[46.1 µM].
Cc1ccccc1NS(=O)(=O)c1cc(C(=O)NCc2ccncc2)ccc1Cl was read as 2A StopGo 9%, SARS PLP yeast 8%, LASV entry inh inconclusive, RE007 growth inh 7%, NS1 inh 3% and MARV entry inh -17%.
Cc1ccccc1N1C(=O)CC(N(O)c2ccccc2)C1=O (stereo not drawn) was read as 2A StopGo 22%, SARS PLP yeast -1%, LASV entry inh inconclusive, RE007 growth inh 3%, NS1 inh inconclusive, Cruzain Triton 4.2%, Cruzain inh noDet -15% and MARV entry inh 16%.
`Cc1[nH]c2ccccc2c1C(=O)C(=O)NCCC1=CCCCC1` gave 2A StopGo -6%, SARS PLP yeast -3%, LASV entry inh inconclusive, RE007 growth inh -23%, NS1 inh 1%, Cruzain Triton -4.0%, Cruzain inh noDet 7% and MARV entry inh -8%.
COc1ccc(-c2ccc(C#N)c(SCC(=O)NCc3ccco3)n2)cc1OC was read as 2A StopGo -4%, SARS PLP yeast -1%, LASV entry inh inconclusive, RE007 growth inh -21%, NS1 inh 3% and MARV entry inh inconclusive.
Screening COc1ccc(-c2noc(CSc3ccc(C)cc3)n2)cc1 returned 2A StopGo 10%, SARS PLP yeast -6%, LASV entry inh -13%, RE007 growth inh -15%, NS1 inh -5%, Cruzain Triton 2.5%, Cruzain inh noDet 3% and MARV entry inh 18%.
COc1ccc(/C=C(/NC(=O)c2cccc([N+](=O)[O-])c2)C(=O)O)cc1OC was read as 2A StopGo 6%, SARS PLP yeast 0%, LASV entry inh -2%[46.1 µM], RE007 growth inh -7%, NS1 inh 10% and MARV entry inh 19%[46.1 µM].

Fetched by structure from the list above:
Cc1ccccc1NS(=O)(=O)c1cc(C(=O)NCc2ccncc2)ccc1Cl was read as 2A StopGo 9%, SARS PLP yeast 8%, LASV entry inh inconclusive, RE007 growth inh 7%, NS1 inh 3% and MARV entry inh -17%.
Screening Cc1ccc(C(=O)OCC(=O)Nc2sccc2C(N)=O)cc1NC(=O)c1ccco1 returned 2A StopGo inconclusive, SARS PLP yeast 2%, LASV entry inh -1%, RE007 growth inh -2%, NS1 inh 7%, Cruzain Triton -1.9%, Cruzain inh noDet -2% and MARV entry inh -16%.

Carrying on:
`COc1ccc(NC(=S)Nc2ccc(OCc3ccccc3)cc2)cc1OC` gave 2A StopGo -19%, SARS PLP yeast -2%, LASV entry inh -11%, RE007 growth inh -19%, NS1 inh 15%, Cruzain Triton -7.8%, Cruzain inh noDet inconclusive and MARV entry inh inconclusive.
CCCC(=O)Nc1ccc(C(=O)NNC(=O)c2ccccc2Br)cc1 was read as 2A StopGo 12%, SARS PLP yeast -2%, LASV entry inh -6%, RE007 growth inh 17%, NS1 inh -7%, Cruzain Triton -2.4%, Cruzain inh noDet -9% and MARV entry inh 16%.
`COc1ccc(OC)c(CCNC(=O)C2CCN(c3ncnc4c3nc3n4CCCCC3)CC2)c1` gave 2A StopGo 10%&12%, SARS PLP yeast 5%, LASV entry inh 16%&4%[46.1 µM], RE007 growth inh 1%, NS1 inh 0% and MARV entry inh 3%&3%[46.1 µM].
`N#CC(=C1CCCC1)c1nc(-c2cc3ccccc3oc2=O)cs1` gave SARS PLP yeast -5%, LASV entry inh inconclusive, RE007 growth inh -3%, NS1 inh 1%, Cruzain Triton -4.7%, Cruzain inh noDet -20% and MARV entry inh inconclusive.
For Nc1n[nH]c(C2CC2)c1N=Nc1ccc(Cl)cc1 the results were 2A StopGo 15%, SARS PLP yeast -2%, RE007 growth inh -17% and NS1 inh -1%.
O=C(O)COc1ccc(NC(=O)c2ccco2)cc1 was read as SARS PLP yeast -6%[6.58 µM], LASV entry inh -10%, RE007 growth inh 2%, NS1 inh 4%, Cruzain Triton 1.9%, Cruzain inh noDet 2% and MARV entry inh 2%.
For Cc1ccc(-c2csc(NC(=O)C[n+]3cc(-c4ccccc4)n4c3CCC4)n2)cc1 the results were 2A StopGo 17%, SARS PLP yeast -3%, LASV entry inh inconclusive, RE007 growth inh 0%, NS1 inh -5% and MARV entry inh inconclusive.
Screening O=C(CCc1ccccc1)Nc1ccc(NC(=O)c2ccco2)cc1 returned SARS PLP yeast -2%, LASV entry inh inconclusive, RE007 growth inh -2%, NS1 inh -13%, Cruzain Triton 2.3%, Cruzain inh noDet 7% and MARV entry inh 23%.
CCCCCCOc1ccc(OC(=O)c2cccnc2)cc1 was read as SARS PLP yeast -10%, LASV entry inh -27%, RE007 growth inh 9%, NS1 inh -10%, Cruzain Triton -3.3%, Cruzain inh noDet 4% and MARV entry inh -8%.
COc1ccc(Cl)cc1NC(=O)COC(=O)CCCN1C(=O)c2ccccc2C1=O was read as 2A StopGo -18%, SARS PLP yeast -30%, LASV entry inh 18%, RE007 growth inh -7%, NS1 inh -32%, Cruzain Triton -4.7%, Cruzain inh noDet 21% and MARV entry inh -4%.
Screening O=C(COc1ccc2ccccc2c1)Nc1ccncc1 returned 2A StopGo -13%, SARS PLP yeast -3%, LASV entry inh -1%, RE007 growth inh inconclusive, NS1 inh -10% and MARV entry inh -4%[46.1 µM].
`COc1ccc(NC(=O)CSc2nc(O)cc(=O)n2-c2ccccc2OC)cc1` gave 2A StopGo 3%, SARS PLP yeast 1%, LASV entry inh 19%, RE007 growth inh 4%, NS1 inh inconclusive, Cruzain Triton inconclusive, Cruzain inh noDet 16µM* and MARV entry inh inconclusive.
Screening Cn1cccc1C(=O)/C(C#N)=C/c1ccc(F)cc1 returned 2A StopGo 9%, SARS PLP yeast 0%, LASV entry inh 10%[46.1 µM], RE007 growth inh -17%, NS1 inh 6% and MARV entry inh 8%[46.1 µM].
